Screens from PubChem BioAssay.
AF4-AF9 inh: MLL-AF4/AF9 protein interaction inhibition. P42568. AlphaScreen, biotin-AF4 peptide binding to FLAG-AF9. inhibition, % at 10 µM. hit rate 0.47% among 350,000. AID 651704;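 active means every replicate reaching a set inhibition limit, whatever the replicate mean, cut at about 25% in these data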;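 further: 0% = plate neutral control median and 100% = total signal loss; the record names both 10 and 1 µM as test concentration; the first replicate is given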
Target sequence (P42568 whole entry, looked up): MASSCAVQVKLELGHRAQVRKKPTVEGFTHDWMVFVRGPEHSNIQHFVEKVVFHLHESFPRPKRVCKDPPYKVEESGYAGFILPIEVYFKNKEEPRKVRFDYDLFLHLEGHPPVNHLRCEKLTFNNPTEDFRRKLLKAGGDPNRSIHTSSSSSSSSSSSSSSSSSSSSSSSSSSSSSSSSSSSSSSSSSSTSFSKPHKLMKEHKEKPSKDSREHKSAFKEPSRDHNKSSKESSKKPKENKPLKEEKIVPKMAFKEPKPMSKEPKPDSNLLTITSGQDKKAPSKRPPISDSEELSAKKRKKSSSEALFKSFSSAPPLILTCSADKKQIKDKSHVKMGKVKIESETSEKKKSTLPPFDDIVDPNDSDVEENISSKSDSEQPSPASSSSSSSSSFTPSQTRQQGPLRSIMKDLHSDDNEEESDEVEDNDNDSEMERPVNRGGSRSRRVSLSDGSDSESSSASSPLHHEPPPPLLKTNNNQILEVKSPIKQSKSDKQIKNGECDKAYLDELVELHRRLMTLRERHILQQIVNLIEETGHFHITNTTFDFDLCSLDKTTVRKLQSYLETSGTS
FGF22 binding: shifts melting point of recombinant human FGF22. Q9HCT0. recombinant FGF22 thermal shift, SYPRO orange fluorescence; percent of sucrose octasulfate shift, DMSO zero. calls only at 9.99 µM. hit rate 1.5% among 340,000;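 active means melting point raised past a set limit in the mean and every replicate; three in four hits are not shown here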
Target sequence (Q9HCT0 whole entry, looked up): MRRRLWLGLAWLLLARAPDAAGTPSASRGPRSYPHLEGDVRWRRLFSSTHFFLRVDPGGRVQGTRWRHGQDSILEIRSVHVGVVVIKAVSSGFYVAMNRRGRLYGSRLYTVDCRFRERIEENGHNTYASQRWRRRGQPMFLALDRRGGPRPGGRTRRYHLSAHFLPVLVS
rRNA inh HTS: selective bacterial rRNA inhibition in E. coli; E. coli WT GFP vs humanized-ribosome RFP mutants, fluorescence, 24 h; hits give low values; DMSO median 0, no signal -100; GFP signal change (wild-type ribosome), % (no concentration beside the values); hit rate 1.6% among 350,000;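 active means significant combined selectivity score with lowered wild-type GFP, culture density cut under 30%, mutant RFP and density less affected; inactive means any of these conditions unmet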; further: one replicate is shown; some compounds called inactive have numbers as strong as hits
rRNA inh HTS OD600: also measured in rRNA inh HTS; calls as there; OD600 change, %; measured here: OD600 growth;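 optical density of the mix in the first replicate; 0 = DMSO median and -100 = no signal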
rRNA inh HTS RFP: also measured in rRNA inh HTS; calls as there; RFP signal change, %; measured here: RFP humanized mutant strains;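 first replicate; 0 = DMSO median and -100 = no signal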
* = called active by the depositor; i = inactive; & = joins results of further samples.

SMILES	AF4-AF9 inh	FGF22 binding	rRNA inh HTS	rRNA inh HTS OD600	rRNA inh HTS RFP
C[C@H]1CN([C@@H](C)CO)S(=O)(=O)c2ccc(C#Cc3ccncc3)cc2O[C@@H]1CN(C)C(=O)Nc1ccc2c(c1)OCO2	5.2	i	-8.6	-13.8	1.5
CN(C)C(=O)C[C@@H]1CC[C@H]2[C@@H](COC[C@H](O)CN2CC2CCCC2)O1	-19.1	i	2.6	3.2	1.7
COc1ccc(-c2ccc([C@@H]3[C@@H](C#N)N(C(=O)c4cccnc4)[C@H]3CO)cc2)cc1	-0.6	i	7.5	0.5	-2.0
CC=Cc1ccc2n(c1=O)C[C@@H]1[C@@H](CO)[C@H](C(=O)NCCC)[C@H]2N1CC1CC1 (mixture of isomers)	-0.8	i	2.2	5.3	-1.3
CCCCCCn1c(=O)n2n(c1=O)[C@@H]1CN(S(=O)(=O)c3ccc(C)cc3)C[C@]1(O)[C@@H](OC(=O)NC1CCCC1)C2	-4.2	i	4.6	2.0	20.5
Cc1nc(C(F)(F)F)ccc1C(=O)N1CCC1(C)C(=O)NS(=O)(=O)c1ccccc1 (centres undefined)	2.1	i	15.8	13.3	-1.4
CC(C)C[C@@H](COCc1cccc(Cl)c1)N1CCN(C(=O)c2ccc(C(F)(F)F)cc2)CCC1=O	-3.0	i	-6.1	-16.8	3.5
C[C@@H]1CCCCO[C@H](CN(C)C(=O)C2CCCCC2)[C@H](C)CN([C@@H](C)CO)C(=O)c2cc(N(C)C)ccc2O1	3.4	i	-3.9	-3.8	1.1
CCN1[C@@H]2c3ccc(-c4ccccc4)c(=O)n3C[C@H]1[C@H](CO)[C@H]2C(=O)NC1CCC1	-0.5	i	2.0	0.3	-0.4
C[C@@H]1CN([C@H](C)CO)S(=O)(=O)c2ccc(C#CCN(C)C)cc2O[C@H]1CN(C)CC1CCCC1	13.6	i	-4.6	-4.8	3.4
COc1ccc2c3c([nH]c2c1)[C@@H](CO)N(C(=O)CN1CCOCC1)CC31CCN(Cc2ccccc2)CC1	5.0	i	3.6	5.0	-4.6
COCC#Cc1ccc([C@@H]2[C@H]3CN(C(=O)NC4CCCC4)CCCCN3[C@H]2CO)cc1	-3.1	i	7.5	-2.9	0.9
C[C@H](CO)N1C[C@H](C)[C@H](CN(C)C)Oc2c(NC(=O)Nc3ccccc3)cccc2C1=O	-2.7	i	0.7	-2.7	-0.6
Cc1noc(C)c1NC(=O)N(C)C[C@H]1OCCCC[C@H](C)Oc2ccc(NS(=O)(=O)c3c(C)noc3C)cc2C(=O)N([C@@H](C)CO)C[C@@H]1C	3.3	i	6.4	14.6	2.8
CCC(=O)N(C)C[C@@H]1Oc2cc(-c3ccc(C)cc3)ccc2S(=O)(=O)N([C@@H](C)CO)C[C@H]1C	2.6	i	-4.2	-15.2	5.1
C[C@H](CO)N1C[C@H](C)[C@@H](CN(C)CC2CC2)OCCCC[C@H](C)Oc2ccc(NC(=O)Nc3ccccc3)cc2C1=O	16.8	i	2.4	-0.3	-1.5
COc1ccc2c3c([nH]c2c1)[C@H](CO)N(C(=O)C1CCC1)CC31CCN(Cc2nccs2)CC1	-3.6	i	-4.5	-1.2	-1.1
CCCNC(=O)N[C@H]1CC[C@H](CC(=O)N2CCN(C)CC2)O[C@H]1CO	1.0	i	0.2	-0.7	-1.4
COCc1cn(CC[C@H]2CC[C@H](NC(=O)Nc3ccc(C(F)(F)F)cc3)[C@H](CO)O2)nn1	0.0	i	2.4	-0.3	-0.7
C[C@@H]1CN([C@@H](C)CO)C(=O)c2cc(N(C)C)ccc2O[C@@H](C)CCCCO[C@H]1CN(C)C(=O)CCC(F)(F)F	5.6	i	-0.6	3.1	0.6
O=c1c2ccccc2sn1-c1cccc(Cl)c1	-14.0	i	-29.1	-49.6	-10.8
CNc1cncc(-c2ccoc2)n1	-2.5	i	17.5	21.2	5.3
COCC#Cc1ccc2c(c1)O[C@H](CN(C)C)[C@@H](C)CN([C@H](C)CO)S2(=O)=O	0.1	i	-0.8	2.7	-3.8
CCCC#Cc1cnc2c(c1)C(=O)N([C@@H](C)CO)C[C@@H](C)[C@H](CN(C)Cc1ccccc1)O2	3.8	i	2.8	6.6	3.2
COc1ccc(S(=O)(=O)N(C)C[C@@H]2OCCCC[C@H](C)Oc3ccc(NC(=O)Nc4ccc(C(F)(F)F)cc4)cc3C(=O)N([C@H](C)CO)C[C@H]2C)cc1	1.3&-12.9	i	8.1&3.4	11.4&13.6	0.0&-3.4
More compounds follow.
SMILES	AF4-AF9 inh	FGF22 binding	rRNA inh HTS	rRNA inh HTS OD600	rRNA inh HTS RFP
O=C(NCC[C@@H]1CC[C@H](NC(=O)c2ccccc2F)[C@H](CO)O1)c1ccc2c(c1)OCO2	-0.1	i	-1.0	7.8	0.1
C[C@H](CO)N1C[C@H](C)[C@H](CN(C)C(=O)c2ccc(F)cc2)Oc2ncc(-c3ccc(F)cc3)cc2C1=O	-3.0	i	1.3	4.6	2.0
COc1ccc(CN(C)C[C@H]2Oc3c(NC(=O)Nc4ccc(F)cc4)cccc3C(=O)N([C@H](C)CO)C[C@H]2C)cc1	2.9	i	3.5	-1.0	-3.0
Cc1ccc(-c2cnc3c(c2)C(=O)N([C@@H](C)CO)C[C@@H](C)[C@H](CN(C)CC2CCOCC2)O3)cc1	-0.7	i	3.5	6.6	-0.1
NCC[C@@H]1CC[C@H](NC(=O)Nc2ccc(F)cc2)[C@H](CO)O1	5.6	i	-0.5&0.7	-2.2&2.2	1.0&1.5
C[C@@H]1CN([C@H](C)CO)C(=O)c2cc(NS(=O)(=O)c3ccc(Cl)cc3)ccc2O[C@@H]1CN(C)S(=O)(=O)c1ccc(Cl)cc1	-1.7	i	-5.3	-8.5	0.9
COc1ccc(S(=O)(=O)Nc2cccc3c2O[C@@H](CN(C)S(=O)(=O)c2c(C)noc2C)[C@H](C)CN([C@H](C)CO)C3=O)cc1	-0.9	i	-1.6	-1.9	-0.8
CCOC(=O)C1=CCN(S(=O)(=O)c2ccccc2F)C1c1ccc(Br)cc1 (centres undefined)	1.8	i	-10.9	-37.8	-9.5
CCC(=O)N1C[C@@H]2[C@H](c3ccccc31)[C@H](CO)N2C(=O)Nc1ccccc1	-3.1	i	4.6	7.0	-3.0
COc1ccc(S(=O)(=O)N(C)C[C@@H]2OCCCC[C@H](C)Oc3ccc(NC(=O)CCC(F)(F)F)cc3C(=O)N([C@@H](C)CO)C[C@@H]2C)cc1	1.7	i	-1.3	-6.5	1.0
CN(C)CC(=O)Nc1ccc2c(c1)[C@@H]1C[C@@H](CC(=O)NC3CCCCC3)O[C@H](CO)[C@@H]1O2	-1.0	i	4.2	-9.2	1.4
C[C@@H]1CCCCO[C@@H](CN(C)C(=O)C2CCCCC2)[C@H](C)CN([C@@H](C)CO)C(=O)c2cc(NC(=O)c3ccncc3)ccc2O1	-2.1	i	-3.9	-5.0	1.4
C[C@@H]1CN([C@H](C)CO)S(=O)(=O)c2ccc(-c3cncnc3)cc2O[C@@H]1CN(C)C(=O)c1ccc2c(c1)OCO2	1.5	i	0.4	10.8	-2.2
C[C@H]1CN([C@@H](C)CO)C(=O)CCCn2cc(nn2)CO[C@@H]1CN(C)S(=O)(=O)c1cccc(F)c1	0.1&-1.1	i	9.0&-1.1	7.3&-2.2	2.0&-0.4
CCOC(=O)Nc1ccc2c(c1)N(C(=O)CN(C)C)c1ccccc1S2	-1.6	i	-11.1	-12.6	0.3
CC(=O)CC(=O)NC1CCc2ccccc21 (centres undefined)	0.5	i	13.4	1.0	1.0
CC1(C)CC(=O)C=C(c2ccccc2F)C1=O	-2.1	i	19.5	13.8	2.0
C[C@@H]1CCCCO[C@@H](CN(C)Cc2ccccc2)[C@H](C)CN([C@H](C)CO)C(=O)c2cc(NC(=O)NC3CCCCC3)ccc2O1	2.8	i	-1.6	-3.7	1.0
NS(=O)(=O)c1ccc(CNC(=O)c2cc(S(=O)(=O)N3CCOCC3)ccc2N2CCCC2)cc1	-5.3	i	4.7	12.5	-1.5
C[C@H](CO)N1C[C@H](C)[C@@H](CN(C)C(=O)C2CCCCC2)Oc2cc(C#C[C@@H](C)O)ccc2S1(=O)=O	-0.1	i	-2.0	2.1	-1.1
C[C@@H](c1ccccc1)N1C[C@@H](COCc2ccccc2)Oc2cc(N3CCC[C@@H]3CO)ccc2S1(=O)=O	3.1	i	-5.5	-10.7	24.3
CCCCc1c(-c2ccccc2OC)ncn1C(C)c1ccc(Cl)cc1 (centres undefined)	12.3	i	-52.2	-75.0	-10.4
COc1ccc(-n2c(-c3ccc(C(C)(C)C)cc3)n[nH]c2=S)c(OC)c1	0.1	i	-58.6	-69.5	-13.8
COc1ccc(CN(C)C[C@@H]2Oc3ccc(NS(=O)(=O)c4cccs4)cc3C(=O)N([C@H](C)CO)C[C@@H]2C)cc1	-0.5	i	-0.1	5.5	0.3
COc1ccc(-c2cnc3c(NC=O)cc(-c4ccccc4OC)cn23)cc1OC	3.4	i	-4.0	-16.6	-0.8

Entries from the list above with a Cl atom:
SMILES	AF4-AF9 inh	FGF22 binding	rRNA inh HTS	rRNA inh HTS OD600	rRNA inh HTS RFP
CC(C)C[C@@H](COCc1cccc(Cl)c1)N1CCN(C(=O)c2ccc(C(F)(F)F)cc2)CCC1=O	-3.0	i	-6.1	-16.8	3.5
O=c1c2ccccc2sn1-c1cccc(Cl)c1	-14.0	i	-29.1	-49.6	-10.8
C[C@@H]1CN([C@H](C)CO)C(=O)c2cc(NS(=O)(=O)c3ccc(Cl)cc3)ccc2O[C@@H]1CN(C)S(=O)(=O)c1ccc(Cl)cc1	-1.7	i	-5.3	-8.5	0.9
CCCCc1c(-c2ccccc2OC)ncn1C(C)c1ccc(Cl)cc1 (centres undefined)	12.3	i	-52.2	-75.0	-10.4

(continued)
SMILES	AF4-AF9 inh	FGF22 binding	rRNA inh HTS	rRNA inh HTS OD600	rRNA inh HTS RFP
C[C@@H]1CN([C@@H](C)CO)C(=O)c2cc(NC(=O)CCCN(C)C)ccc2O[C@@H](C)CCCCO[C@@H]1CN(C)S(=O)(=O)c1ccc(Cl)cc1	7.2	i	-0.2	-0.9	0.3
O=C(CC1CC1)N1CC[C@@H]2[C@@H](CO)Nc3ccc(-c4ccccc4)cc3[C@@H]21	-1.0	i	-1.0	-9.2	5.8
COc1ccc(OCCN2CCC(C(=O)NC(c3ccc(F)cc3)c3ccc4ccccc4n3)CC2)cc1 (centres undefined)	4.7	i	-55.0	-74.5	-6.0
CC(=O)N(C)C[C@@H]1Oc2cc(-c3cccc(F)c3)ccc2S(=O)(=O)N([C@H](C)CO)C[C@@H]1C	-2.1	i	-5.7	13.7	2.6
C[C@@H]1CN([C@H](C)CO)C(=O)c2cc(NC(=O)CCC(F)(F)F)ccc2O[C@@H](C)CCCCO[C@H]1CN(C)S(C)(=O)=O	-22.4	i	0.7	-5.8	-0.4
Cc1ccc(S(=O)(=O)Nc2ccc3c(c2)C(=O)N(C)[C@H]2CC[C@@H](CC(=O)O)O[C@@H]2CO3)cc1	-0.6	i	0.9	4.8	-0.8
CO[C@H]1CN(C)C(=O)c2ccc(NC(=O)c3cc(C)on3)cc2OC[C@@H](C)N(C(=O)C2CC2)C[C@@H]1C	-1.6	i	-2.0	-1.5	-1.7
CO[C@H]1CN(C)C(=O)c2ccc(NC(=O)Nc3ccc(Cl)cc3)cc2OC[C@@H](C)N(C)C[C@@H]1C	6.8	i	-2.0	-3.7	3.7
CCC(=O)N[C@@H]1CC[C@@H](CC(=O)OC)O[C@@H]1CO	0.7	i	3.0	8.4	-1.2
CNc1ncnc2c1ncn2[C@H]1CN(CCc2ccccc2)C[C@@H](CO)O1	-7.0	i	3.8	2.2	-1.5
C[C@@H]1CN([C@H](C)CO)C(=O)c2cc(C#Cc3cccnc3)cnc2O[C@@H]1CN(C)S(=O)(=O)c1ccccc1F	-2.0	i	0.0	-0.9	1.3
C[C@@H]1CN([C@@H](C)CO)C(=O)Cc2cc(NS(=O)(=O)c3ccc(F)cc3)ccc2O[C@H]1CN(C)S(=O)(=O)c1cn(C)cn1	0.1	i	2.0	7.0	-0.7
CCCc1cn(CC[C@H]2CC[C@H](NC(=O)C3CCCC3)[C@@H](CO)O2)nn1	0.7	i	3.4	17.4	0.5
O=C(C[C@H]1CC[C@H]2[C@@H](COC[C@@H](O)CN2C(=O)Nc2ccc(Cl)cc2)O1)NCC1CCCCC1	-20.1	i	-46.7	-60.0	-19.6
CCC(=O)N1C[C@H]2[C@@H](c3ccccc31)[C@@H](CO)N2C(=O)CC1CC1	-1.9	i	3.8	4.3	-0.2
COc1ccc(CCNC(=O)Nc2nc(C(N)C3CCCCC3)cs2)cc1OC (centres undefined)	10.0	i	6.8	14.8	0.1
C=C1C[C@@H]2C[C@@H]2CN(S(=O)(=O)c2ccc(C)cc2)[C@@H]1c1ccco1	3.0	i	-28.5	-32.1	-5.1
O=C(NN=Cc1ccc2c(c1)CCC2)c1ccccc1O	-0.2	i	-4.5	1.6	-0.5
Cc1cc(SCC(=O)N2c3ccccc3NC(=O)CC2C)nc2ccccc12 (centres undefined)	-2.7	i	11.7	2.3	8.4
CCC(=O)Nc1ccc2c(c1)C(=O)N(C)C[C@H](OC)[C@@H](C)CN(C(=O)c1cnccn1)[C@@H](C)CO2	4.9	i	2.3	4.7	-3.3

A portion of the library; the hit share may differ from the screen's.
